From PubChem
Sfp inh – Sfp phosphopantetheinyl transferase inhibition; Q9F4F7; Biochemical Sfp PPTase activity, qHTS; Potency, µM, inactives show max response, negative = inhibition, hits mostly inhibitors; actives 3.5% (n = 310,000); AID 1490; active means well fitted inhibition curve with a large enough effect; inconclusive means small, poorly fitted or top-dose-only effect, or another doubt; inactive means no such curve, though single readings can be large or run the other way;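 further: the enzyme is Sfp with the accession as filed and its product quenches rhodamine fluorescence; potency means the concentration at half of the fitted maximal effect; 0% = enzyme reaction without inhibitor and -100% = no enzyme wells; top concentration of the series not given in the record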
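Compounds were incubated with enzyme (final 15 nM) for 15 min at room temperature before substrate addition started the reaction. Fluorescence at 525 nm excitation, 598 nm emission was recorded immediately and after 30 minutes.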
Menin-MLL FL inh – menin-MLL binding inhibition, fluorescein peptide; FP activity change, % at 61.4 µM; Fluorescence polarization, fluorescein-MLL peptide displacement from menin; 290,000 tested, under 10 active; inconclusive = falling polarisation curve, or a change in total fluorescence; inactive = total fluorescence flat and polarisation flat or rising; no compound was filed as active; the % refers to the polarisation; negative = inhibition;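 further: % of control where 0% means no effect; inhibitors lower the polarisation; unlabelled MLL peptide was the positive control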
gsp agonist – activates gsp, the McCune-Albright syndrome mutation; gsp mutant cells, cAMP HTRF, 30 min; control for the full effect not named in the record; Potency, µM (highest dose often 76.9 µM), without a hit: at the highest dose activation (cAMP increase), most hits filed as activators; actives 0.13% (n = 340,000); active = well fitted activation curve with a large enough effect; inconclusive = small, poorly fitted or top-dose-only effect, or another doubt; inactive = no such curve, though single readings can be large or run the other way; cell line not stated here;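 further: phosphodiesterase inhibitor Ro 20-1724 added with compounds to block cAMP breakdown; potency means the concentration at half of the fitted maximal effect; nearly all actives have a fitted effect of over 60% in size; about a fifth of the inactives were tested at one dose only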
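Cells stably selected in G418 were plated at 2000/well, grown 16-24 hr, then given compounds in DMSO with the PDE inhibitor […] (300 uM solution added) for 30 min at 37C; cAMP was read by HTRF.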
ClpP mod – qHTS Assay for Activators of ClpP; Potency, µM (top dose mostly 57.5 µM), for the others: at the highest dose activity change, negative = active; ATP-dependent Clp protease proteolytic subunit (Bacillus subtilis (strain 168)), P80244; purified B. subtilis ClpP, FRET peptide cleavage, 20 min; actives 1.9% (n = 340,000); active = well fitted falling curve with a large enough effect; inconclusive = small, poorly fitted or top-dose-only effect; inactive = no such curve, though single readings can be large or run the other way; further: potency means the concentration at half of the fitted maximal effect; the source files actives as falling curves though it sought activators and does not explain the sign; nearly all actives have a fitted effect of over 65% in size; many hits overshoot -100%
Target sequence (P80244 whole entry, looked up): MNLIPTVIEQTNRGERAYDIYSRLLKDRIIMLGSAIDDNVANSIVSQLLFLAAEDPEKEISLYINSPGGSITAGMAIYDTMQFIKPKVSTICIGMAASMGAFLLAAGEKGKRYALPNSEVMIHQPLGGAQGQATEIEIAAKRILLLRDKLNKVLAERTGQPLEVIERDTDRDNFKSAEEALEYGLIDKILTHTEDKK
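Purified B. subtilis ClpP, 10 microg/mL final in Tris/HCl pH8 with KCl, BSA, glycerol and Tween-20, cleaved an Abz/nitrotyrosine-quenched decapeptide. Fluorescence (ex 320, em 430) was read at 0 and 20 min at room temperature. Delta was normalized to 5.8 microM ADEP and DMSO/no-enzyme controls.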
D2 agonist – agonists of human D2 dopamine receptor (beta-arrestin) | activation, % (test concentration not listed) | DiscoveRx PathHunter D2 beta-arrestin, luminescence, 90 min; 100% = 57 uM dopamine signal | actives 0.084% (n = 360,000) | P14416; in the data active = activation above about 40%; inconclusive = about 15% to 40%; inactive = below about 15%; further: compound concentration not given in the record; the text of the record calls up to 30% inactive
Target sequence (P14416 whole entry, looked up): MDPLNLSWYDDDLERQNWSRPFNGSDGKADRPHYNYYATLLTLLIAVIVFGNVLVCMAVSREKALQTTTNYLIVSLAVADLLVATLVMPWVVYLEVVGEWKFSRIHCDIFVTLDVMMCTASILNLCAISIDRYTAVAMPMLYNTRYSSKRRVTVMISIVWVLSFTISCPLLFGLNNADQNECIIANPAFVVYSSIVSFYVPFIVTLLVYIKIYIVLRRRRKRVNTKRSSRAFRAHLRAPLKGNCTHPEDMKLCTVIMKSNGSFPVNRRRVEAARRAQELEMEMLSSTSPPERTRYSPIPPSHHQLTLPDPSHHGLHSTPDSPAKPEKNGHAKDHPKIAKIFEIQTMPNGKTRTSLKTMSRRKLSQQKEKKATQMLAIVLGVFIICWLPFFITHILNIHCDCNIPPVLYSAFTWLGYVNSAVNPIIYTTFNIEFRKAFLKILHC
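Agonist mode: compounds alone added to overnight-plated D2 PathHunter cells for 90 min at 37 C, with 57 uM final dopamine (EC100) defining full response. Beta-arrestin recruitment detected by chemiluminescent reagent, read after 1 h at ambient temperature.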
gsp antagonist – antagonists of gsp mutant (McCune-Albright syndrome); actives 0.4% (n = 340,000); gsp-mutant cells, cAMP HTRF, 30 min; control for the full effect not named in the record; Potency, µM (titrated, usually from 76.9 µM), for the others: at the top dose activity change, negative = inhibition, most hits filed as inhibitors; active = falling curve of any shape with a large fitted effect; inconclusive = falling curve, mostly with a smaller effect; inactive = flat or rising curve; cell line not stated here;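 further: intracellular cAMP measured with PDE inhibitor Ro 20-1724 present during compound exposure; potency means the concentration at half of the fitted maximal effect; on the % scale 0 is the no-effect control and ±100 the full control effect; nearly all actives have a fitted effect of over 65% in size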
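HTRF cAMP read-out (cAMP-d2 plus anti-cAMP antibody-K in lysis buffer, 30 min RT). Before lysis, cells are exposed to compounds with […] for 30 min at 37C in DPBS containing Ca/Mg, BSA and Tween 20.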
PINK1 expr mod – modulators of PINK1 expression. PINK1 immunofluorescence, high-content cytometry, 24 h. Potency, µM (top dose mostly 76.6 µM), inactives show at the highest dose activation (PINK1 increase), most hits filed as activators. AID 624263. actives 0.2% (n = 410,000); active = well fitted activation curve with a large enough effect; inconclusive = small, poorly fitted or top-dose-only effect; inactive = flat fitted curve, though single readings scatter; cell line not stated here;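 further: potency means the concentration at half of the fitted maximal effect; % of control where 0% means no effect; nearly all actives have a fitted effect of over 65% in size; a mitochondrial uncoupler was the plate control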
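Cells are seeded, rested 12 hours, then given compound at five concentrations or DMSO for 24 hours. After fixation, blocking and antibody staining, PINK1 amount and mitochondrial localization are scored; CCCP serves as control.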
Numbers without * were called inactive; ? = inconclusive; . = no result given; & = joins results of further samples; [ ] = another dose, or the depositor's remark. Rows were taken by chance (roughly 5.1% active in at least one column).

SMILES	Sfp inh	Menin-MLL FL inh	gsp agonist	ClpP mod	D2 agonist	gsp antagonist	PINK1 expr mod
CN(CC(=O)Nc1ccc(Cl)c(C(F)(F)F)c1)C(=O)Cc1n[nH]c(=O)c2ccccc12	.	.	21%	5.1%	-3.8	-7%	0.2%
COc1ccc(NC(=O)N(C)C[C@H]2Oc3c(NC(=O)Nc4ccc5c(c4)OCO5)cccc3C(=O)N([C@H](C)CO)C[C@@H]2C)cc1	.	.	7%	0.9%	8.8	-16%	3.4%
Cc1cc(C)c(C)c(S(=O)(=O)Nc2ccccc2C(=O)O)c1C	?	-1.3	-11%	.	5.0	-11%	0.1%
CCOC(=O)c1ccc2c(c1)N(CC#N)C(=O)C(C)(C)O2	-1%	-1.6	-56%[inhibitor]	3.0%	5.3	1%	2.1%
Cn1c(=O)c2cc(S(=O)(=O)N3CCN(c4cccc(C(F)(F)F)c4)CC3)ccc2n(C)c1=O	5%	0.6	?	-27%	-1.5	-1%	5.5%
COc1ccccc1NC(=O)N(c1c(N)n(Cc2ccccc2)c(=O)[nH]c1=O)C1CCCC1	33%[activator]	-0.9	?	-1.4%	-1.4	2%	-1.9%
CCOC(=O)c1ccccc1NC(=O)c1ccccc1SC	-25%	-0.7	18%	-0.9%	-4.3	1%	-2.3%[38.3 µM]
COc1ccc(NC(=S)N(CCN(C)C)C(C)c2ccncc2)cc1Cl (stereo unspecified)	-3%	3.2	4%[15.4 µM]	.	0.8	-9%	-0.5%
COc1ccccc1CN1CCCC(N2CCN(c3ccccc3OC)CC2)C1 (stereo unspecified)	14%	-1.6	19%	-1.5%	-3.0	10%	0.1%
O=C(CSc1nnc(COc2ccc(Br)cc2)o1)N1CCOCC1	10%	-6.1	2%[15.4 µM]	.	-1.2	4%	3.8%
O=C(/C=C/c1ccc(OCc2c(F)cccc2Cl)cc1)N1CCOCC1	-5%	-0.4	18%	.	6.6	-20%	1.8%
COc1ncnc(OC)c1NC(=O)c1ccc(F)cc1	0%	3.5	1%	-0.7%	-2.1	16%	-2.0%
CCOc1nc(C)cc(C)c1S(=O)(=O)c1cccc(Cl)c1	4%	-19	32%	-0.8%	-1.7	?	0.3%
CC(C)(Oc1ccc(Cl)cc1)C(=O)OCC(=O)Nc1ncc(Cl)cc1Cl	-4%	3.8	-45%[inhibitor]	-2.5%	-2.1	9%	-18%[38.3 µM]
C/C(CCc1ccc2c(c1)OCO2)=N\NC(=S)NC(C)C	10%	-0.7	2%	2.1%	1.4	11%	-1.4%
CCC(C)C(NC(=O)C1CCC(C)CC1)C(=O)Nc1ccc(OC)cc1OC (stereo unspecified)	15%	1.3	1%	-0.9%	2.2	-4%	8.6%
CSc1ccc(/C=N/NC(=O)c2cccs2)cc1	-1%	3.7	11%	.	-2.5	-4%	3.8%
CCOC(=O)C[C@H]1c2cc(F)ccc2S(=O)(=O)N1c1cccc(OC)c1	.	.	.	-5.6%&-2.1%	-2.0	9%	0.7%
CNS(=O)(=O)c1ccc2c3c(cccc13)C(=O)N2	3%	0.5	7%[15.4 µM]	-3.0%	0.6	-6%	-1.2%
COc1ccc(C)cc1S(=O)(=O)N1CCc2ccccc2C1	3%	-3.1	-48%[inhibitor]	.	-2.2	4%	-0.6%
COc1ccc(CC(=O)Nc2c3c(nn2C(C)(C)C)CS(=O)C3)cc1 (stereo unspecified)	7%	2.2	?	-2.2%	-3.9	13%	1.1%
C[C@H](CO)N1C[C@H](C)[C@@H](CN(C)C(=O)Nc2ccc(C(F)(F)F)cc2)Oc2c(NS(=O)(=O)c3ccccc3)cccc2C1=O	.	.	3%	0.9%	-5.5	-27%	-0.3%
CCc1noc(C)c1C(=O)NC1CCCc2c1cnn2-c1ccc(C(C)(C)C)cc1 (stereo unspecified)	18%	3.2	17%[15.4 µM]	-11%	0.5	2%	9.7%
COC(=O)c1ccccc1N/C=C/C(=O)c1ccc(Br)cc1	?	9.7	-80%[inhibitor]	25µM*	-1.5	-29%	14%
CN1C(=O)N(C)C(c2ccccc2Cl)C2=C1CC(C)(C)CC2=O (stereo unspecified)	6%	-3.0	-19%	.	1.0	1%	-0.8%
Cc1ccc(-c2nc(NCCN(C)C)c3ccccc3n2)cc1	18%	4.6	-2%[15.4 µM]	0.1%	-2.5	6%	-1.3%
Cc1noc(C(F)(F)F)c1C(=O)NNC(=O)c1cccc(C(F)(F)F)c1	3%	-1.8	?	.	-4.2	2%	2.0%
O=C(NCc1ccc2c(c1)OCO2)c1ccc(NS(=O)(=O)c2ccc3c(c2)OCCO3)cc1	28%	3.7	4%	-3.5%	-1.8	10%	1.7%[38.3 µM]
O=C(NC1CCN(S(=O)(=O)c2ccccc2)CC1)c1ccc(F)cc1	18%	-2.3	-31%[inhibitor]	0.5%	1.7	-7%	-0.3%
Cc1ccc(NC(=O)CSCC(=O)Nc2ccccc2C(=O)N2CCCCC2)cc1	.	.	-6%[15.4 µM]	.	-3.4	-3%	-3.4%
C[C@H]1COC(=O)[C@H](CC(=O)OC(C)(C)C)C/C=C\C[C@@H](CC(=O)N[C@@H](CO)Cc2ccccc2)C(=O)N1	.	.	-22%	-1.5%	-0.4	8%	-0.1%
COc1ccccc1CNC(=O)Nc1nc(C(N)CCc2ccccc2)cs1 (stereo unspecified)	.	.	.	-0.6%	6.0	.	-1.2%
CCCCn1c(N)c(N(CCOC)C(=O)C2CCN(C(=O)c3ccc(Cl)cc3)CC2)c(=O)[nH]c1=O	.	.	-1%[15.4 µM]	-4.6%	-3.7	7%	-0.8%
CC(C)NC(=O)NC(=O)COC(=O)c1ccc(NC(=O)CC#N)cc1	5%	5.1	-29%	0.9%	-3.1	-21%	-1.7%
O=C(CCSCc1ccccc1F)N1CCN(c2ccccn2)CC1	10%	-4.7	-7%	?	-2.6	-4%	-0.6%[38.3 µM]
Cc1cc(SCC(=O)N2CCCC2=O)nc2c(C)cccc12	.	.	10%	0.8%	-1.6	-1%	6.5%
CCOC(=O)c1cc(C)nc(Sc2ccc(C)cc2)c1C#N	-10%	4.6	14%[15.4 µM]	.	0.3	-11%	4.2%
O=C(O)CCC(=O)Nc1cccc2cccnc12	13%	-2.0	12%[15.4 µM]	.	-3.5	.	0.2%
O=C(Nc1ccn(Cc2c(F)c(F)c(F)c(F)c2F)n1)c1ccc(COc2ccccc2Cl)cc1	20%	4.4	24%	-11%	2.9	-2%	18%[38.3 µM]
CCC(C)NC(=O)C1CCN(C(=O)c2ccccc2)CC1 (stereo unspecified)	12%	4.3	2%	-1.9%	0.0	7%	0.1%[38.3 µM]
Cc1ccc(S(=O)(=O)N2CCC(C(=O)NCc3cccnc3)CC2)cc1	9%	3.9	-12%	1.5%	-1.6	-1%	-2.5%[38.3 µM]
Cc1cccc(C)c1OCC(=O)Nc1ccccc1C(F)(F)F	16%	1.9	-33%	-0.6%	-1.2	-5%	8.5%
O=C(/C=C/c1ccc(Cl)cc1)NCc1ccncc1	15%	8.0	-13%	-28%	-2.8	8%	-0.8%
COc1ccc(NC(=O)CN(C)S(=O)(=O)c2ccc3c(c2)CC(C)N3C(C)=O)c(OC)c1 (stereo unspecified)	11%	-6.4	?	0.0%	-2.7	-3%	-0.5%
Cc1ccc(NC(=O)CCn2cnc3ccccc3c2=O)cc1	15%	2.9	?	.	7.6	-3%	10%
CC(C)(C)n1nnnc1C(c1cccnc1)N(Cc1ccccc1)Cc1ccco1 (stereo unspecified)	1%	4.5	-1%	-16%	4.9	-8%	1.1%
CCOC(=O)c1[nH]c2ccc(OC)cc2c1NC(=O)CCN1CCSCC1	4%	6.4	33%	13µM*	-2.9	4%	1.5%
CCn1c(=O)c(C(=O)Nn2c(C)nc3ccccc3c2=O)c(O)c2ccccc21	16%	0.7	-3%	-16%	-3.9	-21%	2.0%
CSCC[C@H](NC(=O)Cc1c(C)c2cc3c4c(oc3cc2oc1=O)CCCC4)C(=O)O	-6%	-18	7%	-18%	-7.7	-5%	0.0%
CN1CCN(CC#Cc2ccccc2)CC1CCO (stereo unspecified)	9%	0.3	-6%[15.4 µM]	-0.5%	-3.7	7%	-0.7%
O=C(NCCN1C(=O)S/C(=C\c2ccccc2)C1=O)C1CCN(S(=O)(=O)c2cccs2)CC1	-14%	4.3	12%	-1.0%	-2.3	-87%	1.8%
COc1cccc(N(C(=O)CCl)C(C(=O)NCCc2ccccc2)c2cccs2)c1 (stereo unspecified)	2%	1.4	1%	-0.4%	-6.4	-16%	-5.7%
COC(=O)c1ccc(N=c2sc(C(=O)OC)cc(=O)n2C)cc1	6%	1.4	2%	-2.6%	0.4	5%	3.6%
C=CCc1cccc(/C=N/NC(=O)C(=O)Nc2ccc(C)cc2)c1O	13%	7.7	-2%[15.4 µM]	.	-1.1	10%	0.0%
Cn1nccc1C(=O)Oc1cccc(/C=N/NC(=O)c2ccccc2O)c1	5%	-8.8	-5%	-1.4%	-2.0	-26%	0.1%
CCOc1ccc2c(ccc(/C=C/c3cc(C)c4cccnc4c3O)[n+]2C)c1	.	.	-9%	-3.8%	-5.9	?	?
O=S(=O)(NCCOc1cccc2cccnc12)c1ccc(F)cc1	-1%	1.0	-18%	-3.7%	2.0	2%	-4.1%[38.3 µM]
Cc1ccc(NC(=O)NCC2CCN(Cc3cccc(Cl)c3)CC2)c(Cl)c1	9%	-5.8	-74%[inhibitor]	0.9%	3.4	-5%	2.7%
COc1ccc(-c2cn3c(C)c(C(=O)Nc4ccncc4)sc3n2)cc1	45µM*	?	?	23%	-2.4	-29%	?
CCCc1c(C)nc2c(Br)cccc2c1Cl	23%	2.2	?	1.1%	-6.4	-19%	1.2%
CC(CCc1ccccc1)NC(=O)C(C)OC(=O)c1ccco1 (stereo unspecified)	.	.	4%	1.5%	-2.4	6%	-0.7%
CN(CC(=O)NNC(=O)CNC(=O)c1cccs1)S(=O)(=O)c1ccc(Cl)cc1	.	.	21%[15.4 µM]	.	1.6	10%	-2.7%
